HSV replic up – HSV replication enhancement; HSV replication augmentation in cells, fold increase; maximum fold increase; hit rate 0.005% among 220,000; AID 1956;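 active = peak rise of 1.5-fold or more in the series; tested in PC3 cells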;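 also: first round at 10 µM; read as green reporter fluorescence; hits show the peak of a series up to 25 µM; 1 = signal of infected wells without compound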
PKD1 inh – inhibitors of human PKD1 kinase; Q15139; PKD1 kinase fluorescence polarization assay; inhibition, %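 (about 10 µM by stock and volumes)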; hit rate 0.056% among 200,000; AID 797;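 active = inhibition of 50% or more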;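 also: controls were vehicle for no effect and a reference inhibitor for full effect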
INS promoter inh – TRM-6 insulin promoter activity inhibition | TRM-6 cells (human fetal islet line), insulin promoter-eGFP reporter, imaging; reporter expression induced with tamoxifen | inhibition, % at 2 µM | hit rate 0.9% among 130,000;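 active = inhibition above the mean plus 3 SD, with well images judged a real hit on visual review, cut at about 60% in these data, passing the limit was not always enough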
GALR2 ag – GALR2 (human) receptor agonism; O43603; GALR2-expressing cells, agonist activation read-out; activation, %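 (tested at 5 µM)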; hit rate 0.48% among 140,000;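 active = above mean plus 3 SD of all compounds, about 5% in these data, not always enough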;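 also: 0% = vehicle buffer wells and 100% = reference agonist at full effect; tested in CHO reporter cells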
Target sequence (O43603 whole entry, looked up): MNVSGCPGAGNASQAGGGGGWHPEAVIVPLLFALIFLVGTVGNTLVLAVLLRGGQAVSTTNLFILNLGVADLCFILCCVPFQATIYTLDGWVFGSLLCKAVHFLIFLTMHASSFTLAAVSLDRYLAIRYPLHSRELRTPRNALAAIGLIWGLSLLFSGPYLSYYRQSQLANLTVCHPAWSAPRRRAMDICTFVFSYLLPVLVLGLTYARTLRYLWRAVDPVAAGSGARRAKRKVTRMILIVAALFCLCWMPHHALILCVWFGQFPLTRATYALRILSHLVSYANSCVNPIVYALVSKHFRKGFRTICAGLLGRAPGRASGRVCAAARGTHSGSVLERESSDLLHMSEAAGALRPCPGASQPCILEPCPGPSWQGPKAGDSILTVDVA
RGS16-Gao HTS – regulators of human RGS16-Galphao interaction; binding response (% of control), % at 10 µM; bead-based flow cytometry RGS16-Galphao binding, fluorescence; actives lie on both sides; AID 1441; hit rate 0.38% among 220,000; O15492+P09471;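 active = below 25% or above 175%, edge rows of some plates excepted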;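 also: Galphao activated by GDP with aluminum fluoride before binding; 100% = wells without compound and 0% = beads without RGS; some results beyond the cut were filed as inactive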
Target sequence (O15492 whole entry, looked up): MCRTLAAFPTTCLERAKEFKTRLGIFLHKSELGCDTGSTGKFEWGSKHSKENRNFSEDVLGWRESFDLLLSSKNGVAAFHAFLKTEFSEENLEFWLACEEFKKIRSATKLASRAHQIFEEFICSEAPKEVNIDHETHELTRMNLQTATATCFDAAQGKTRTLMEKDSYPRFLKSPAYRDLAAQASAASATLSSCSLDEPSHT
Target sequence (P09471 whole entry, looked up): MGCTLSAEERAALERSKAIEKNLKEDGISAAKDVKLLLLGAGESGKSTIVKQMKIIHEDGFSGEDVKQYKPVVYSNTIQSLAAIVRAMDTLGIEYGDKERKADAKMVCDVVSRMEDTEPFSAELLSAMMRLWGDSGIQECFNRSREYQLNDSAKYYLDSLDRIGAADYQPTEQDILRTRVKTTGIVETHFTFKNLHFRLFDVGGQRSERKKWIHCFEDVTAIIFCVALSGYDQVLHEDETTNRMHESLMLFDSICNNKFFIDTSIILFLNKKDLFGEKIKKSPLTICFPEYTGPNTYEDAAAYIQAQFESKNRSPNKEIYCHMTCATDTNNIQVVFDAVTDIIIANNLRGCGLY
INS promoter inh cell count – further read-out of INS promoter inh, marked with its call; normalized cell count, %; measured here: cell count, toxicity; reference of the scale not given here;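 cells exposed to compound for 48 h; stained nuclei by imaging scaled within each plate; lower means fewer cells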
HSV replic up primary fold – also measured in HSV replic up; calls as there; fold increase; compound at 10 µM; measured here: primary screen fold increase 10 uM; tested in PC3 cells;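 GFP signal in the first replicate; 1 = infected wells without compound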
* = called active by the depositor; i = inactive; nt = no result given.

compound	HSV replic up	HSV replic up primary fold	PKD1 inh	INS promoter inh	INS promoter inh cell count	GALR2 ag	RGS16-Gao HTS
CC1(OC(=O)C2CCCC2)C(=O)C=C2C=C(c3ccsc3)N(C3CCCC3)C=C2C1=O (stereo not given)	i	0.87	nt	nt	nt	nt	94.1
COc1ccc(NC(=O)CSc2nnc(CNC(=O)COc3ccc(Cl)cc3)o2)cc1	i	0.95	-3.9	nt	nt	nt	97.4
CCC(C(=O)Nc1nnc(-c2ccco2)s1)c1ccccc1 (stereo not given)	i	0.97	3.7	12.5	89.6	2.6	64.0
CCCN1C=CC(=C2C(=O)c3ccccc3C2=O)C=C1	i	0.76	1.9	31.2	108.4	-0.9	95.3
COC(=O)c1ccc(CN(c2ccc(C)cc2)S(=O)(=O)c2ccc3c(c2)OCCO3)o1	i	0.91	-10.4	nt	nt	-0.2	114.0
O=C(NCCNS(=O)(=O)c1ccccc1)N1CCOCC1	i	1.05	-6.9	-42.1	32.3	-2.0	100.0
CC(C)(C)C(=O)Nc1ccccc1C(=O)NCc1cccnc1	i	1.1	nt	nt	nt	nt	101.2
Cc1ccc(OCC(=O)O/N=C(\N)c2cccnc2)cc1	i	1.07	-6.2	50.0	88.3	nt	113.7
O=C(CSc1nc2ccccc2o1)N1CCN(c2ccc(Cl)cc2)CC1	i	0.8	-7.6	-23.7	86.4	0.1	78.2
CCN(C)c1ccc(/C=N\n2nnnc2N)cc1	i	0.9	-7.0	-24.7	43.3	3.3	101.2
Cc1ccsc1-c1nc(CN2CCCC2c2ccc(F)cc2)c(C)o1 (stereo not given)	i	1.03	-5.3	nt	nt	nt	107.8
NC(=O)N[C@@H](Cc1c[nH]c2ccccc12)C(=O)OCC(=O)N1CCCCC1	i	1.07	0.1	nt	nt	nt	100.6
CCOc1ccc(NC(=S)NCCN2CCN(Cc3ccccc3)CC2)cc1	i	1.01	3.3	24.3	159.7	nt	103.5
Cc1nc(-c2nnc(-c3ccccc3)o2)c(C(F)(F)F)o1	i	1.02	nt	nt	nt	nt	99.8
O/N=C/c1cc(Br)ccc1OCc1cccc(F)c1	i	0.8	-6.5	23.3	101.7	-1.4	100.4
CCCN(CC(=O)Nc1ccc(C(N)=O)cc1)CC(=O)Nc1ccc(Cl)cc1Cl	i	0.92	-7.3	nt	nt	-1.1	107.8
O=C(O)C12CC3CC(C1)CC(n1ncc(NCc4ccco4)c(Cl)c1=O)(C3)C2	i	1.11	nt	nt	nt	nt	93.2
Cc1c(CN(C)C(=O)c2sc3cc(Cl)ccc3c2Cl)cnn1C	i	0.873	-3.1	-51.4	81.9	-0.3	100.0
Cc1nc2ccc(S(=O)(=O)NCC(=O)Nc3cccc(F)c3)cc2s1	i	0.93	-9.9	-13.3	101.5	nt	110.3
O=C(COC(=O)c1ccccc1NS(=O)(=O)c1cccs1)NCC12CC3CC(CC(C3)C1)C2	i	1.11	-2.4	-35.7	92.7	-2.2	90.5
COc1ccc(N2CCN(CCC3Oc4cc([N+](=O)[O-])ccc4NC3=O)CC2)cc1 (stereo not given)	i	1.07	-0.2	nt	nt	nt	99.7
CNC(=S)N(CCc1c(C)[nH]c2ccc(C)cc12)Cc1cc(OC)c(OC)c(OC)c1	nt	nt	-9.9	-30.0	78.9	-0.9	105.4
Cc1nc2ncnn2c(C)c1Cc1c(Cl)cccc1Cl	i	0.903	-8.4	nt	nt	-2.2	104.7
Cc1ccc(N2CC(C(=O)NCc3ccc(C)n3C)CC2=O)cc1 (stereo not given)	i	1.07	0.2	33.3	83.4	nt	60.7
CN1C(=O)/C(=C2/C=CC=CN2C)OC1=S	i	0.91	0.0	nt	nt	-0.3	100.5
CCOC(=O)c1[nH]c(=O)[nH]c1CSCCO	i	0.9	-5.8	36.7	109.9	0.3	103.4
COc1ccc(CN2C(=O)c3ccccc3C2C(=O)NC2CCCCCC2)c(OC)c1 (stereo not given)	i	1	-5.6	-100.0	98.5	nt	95.1
Cn1c(SCc2ccc([N+](=O)[O-])cc2)nc2c(c1=O)SCC2	i	0.76	-7.0	nt	nt	nt	98.9
CCc1nnc(NC(=O)CSc2nccn2-c2ccccc2)s1	i	0.91	-9.8	-43.8	125.1	-1.5	99.0
O=C(NCCCO)C(=O)NCc1ccncc1	i	1.06	-0.5	nt	nt	nt	105.9

Limited to INS promoter inh cell count, HSV replic up primary fold and PKD1 inh (three entries from above):
SMILES | INS promoter inh cell count | HSV replic up primary fold | PKD1 inh
CNC(=S)N(CCc1c(C)[nH]c2ccc(C)cc12)Cc1cc(OC)c(OC)c(OC)c1 | 78.9 | nt | -9.9
CC(C)(C)C(=O)Nc1ccccc1C(=O)NCc1cccnc1 | nt | 1.1 | nt
O=C(COC(=O)c1ccccc1NS(=O)(=O)c1cccs1)NCC12CC3CC(CC(C3)C1)C2 | 92.7 | 1.11 | -2.4

The listing continues.
compound	HSV replic up	HSV replic up primary fold	PKD1 inh	INS promoter inh	INS promoter inh cell count	GALR2 ag	RGS16-Gao HTS
Cc1sc2ncn(CC(=O)NCCc3ccccc3)c(=O)c2c1C	i	1.01	-8.0	-19.4	107.1	-3.2	95.7
COC(=O)c1sc(S(=O)(=O)NCc2cccs2)c(C(=O)OC)c1C	i	1.03	-6.7	8.6	139.3	-0.9	95.0
COc1cc(OC)c(C2=NOC(C(=O)Nc3ccc4c(c3)OCO4)C2)cc1Cl (stereo not given)	i	0.81	-2.3	nt	nt	nt	103.0
COc1ccccc1/C=C\C=N\NC(=O)c1ccco1	i	0.91	5.9	nt	nt	nt	117.0
CC(CC(=O)NCc1cccnc1)c1ccccc1 (stereo not given)	i	0.89	-3.1	-437.5	61.8	-2.9	112.4
COc1ccc(/C=C/C(=O)Nc2ccc(C)cc2)cc1S(=O)(=O)N1CCOCC1	i	0.88	nt	nt	nt	nt	94.9
COc1ccccc1CN(C(=O)Cc1cccs1)C(C(=O)NC1CCCC1)c1ccncc1 (stereo not given)	i	0.81	-4.4	-83.3	84.2	-2.4	94.6
Cc1cccc(N2C(=O)C3C(c4ccccc4)OC4(C(=O)c5ccccc5C4=O)C3C2=O)c1 (stereo not given)	i	1.03	-8.3	-15.4	64.0	-1.9	105.4
CC1(C)CC(=O)C2=C(C1)OC1=C(C(=O)CC(C)(C)C1)C2c1ccccc1	nt	nt	-1.5	-3.1	74.9	-1.4	66.3
c1ccc(-c2nnc(-c3ccccn3)s2)nc1	i	0.94	nt	nt	nt	nt	93.0
CC(C)CN(C(=O)C(c1ccccc1)c1ccccc1)c1c(N)n(CC(C)C)c(=O)[nH]c1=O	nt	nt	-8.9	-78.6	45.3	nt	138.5
CC1CC(C)(C)NC(=S)N1CCC(=O)N1CCc2ccccc2C1 (stereo not given)	i	0.99	3.3	nt	nt	nt	104.5
COc1ccc(S(=O)(=O)N(CC(=O)Nc2cc(C)on2)Cc2ccccc2)cc1	i	0.98	-9.8	nt	nt	-2.2	95.7
Nc1nc2ccc(S(=O)(=O)c3ccc4nc(N)sc4c3)cc2s1	i	0.88	-4.5	-19.4	99.4	-1.7	95.7
COC(=O)c1cccc(C(=O)Nc2ccc(F)cc2)n1	i	0.81	-5.3	47.4	79.0	-0.2	101.6
O=[N+]([O-])c1ccc(CN2CCCCCC2)s1	i	1.17	1.2	nt	nt	-0.2	94.8
CSCC[C@H](NC(=O)Nc1cccc(Br)c1)C(=O)O	i	1.05	nt	nt	nt	nt	95.9
CCSc1ncnc2sc3c(c12)CCC3	i	1.07	-0.1	50.0	164.8	-3.5	97.5
Cc1ccccc1CN1CCNC(=O)C1CC(=O)O (stereo not given)	i	0.88	-8.0	10.0	173.6	-1.7	103.3
CC(C)N(CCC#N)C(=O)Nc1ccc2c(c1)CCO2	i	1	nt	nt	nt	nt	99.5
COc1ccc(/C=N/NC(=O)CNC(=O)c2ccc3c(c2)OCCO3)cc1OC	i	0.9	-3.1	20.0	121.0	1.5	95.0
CN(Cc1ccccc1)C(=O)CCC(=O)N(C)Cc1ccccc1	i	0.7	-2.2	-36.1	155.0	-1.7	98.9
Cn1c(-c2sccc2OCc2ccc(Cl)cc2Cl)n[nH]c1=S	i	1.09	1.1	nt	nt	nt	91.4
O=C(NCCc1ccccc1)c1cccc(N2C(=O)C3CC=CCC3C2=O)c1 (stereo not given)	i	0.91	-3.0	0.0	128.0	nt	100.9
O=C(Nc1ccc(Br)c(Cl)c1)C1CC1	i	0.9	-3.1	nt	nt	-1.3	112.4
CCOc1ccc(NC(=S)N2CCC(N(C)CC3CCCO3)CC2)cc1 (stereo not given)	i	0.95	-1.9	-10.5	116.9	0.0	102.9
CCCCC1CC(CSC(=N)N)OC1=O (stereo not given)	i	0.84	-3.4	48.6	74.2	-0.4	105.5
CCC[N+](CC#Cc1ccccc1)(CCC)CC(=O)OCC	i	0.95	0.4	nt	nt	-1.4	102.5
O=[N+]([O-])c1cccc(C(=Nc2cccc(Cl)c2)NO)c1	i	0.92	-11.9	3.3	44.5	-2.5	98.5
COc1ccc(C(=O)NCc2nnc(SCC(=O)Nc3nc4ccccc4s3)o2)cc1OC	i	0.96	-3.9	-8.0	149.6	0.4	101.7
CC(C)CNS(=O)(=O)c1ccc(CCC(=O)NCc2ccco2)cc1	i	1.03	1.0	-487.5	32.0	-0.6	105.5
COc1cccc(N2C(=O)C(CC(=O)Nc3ccccc3)N(C3CCCCC3)C2=O)c1 (stereo not given)	i	0.95	-6.4	-90.9	110.1	-2.0	104.5
O=C(O)COc1ccccc1-c1ccccc1	i	0.91	nt	nt	nt	nt	99.1
Cc1ccc(-c2nnc(SCC(=O)NNC(=O)COc3cccc4ccccc34)n2C)cc1	i	1.02	-2.8	nt	nt	-1.4	102.6
COc1ccc(NC(=O)CC2C(=O)N(c3ccc(F)cc3)C(=S)N2NC(=O)c2ccc(Cl)cc2)cc1 (stereo not given)	i	0.95	1.1	12.9	123.5	-0.5	108.1
CCCCn1c(N)c(N(CC)C(=O)C(c2ccccc2)c2ccccc2)c(=O)[nH]c1=O	i	0.97	-1.1	54.5	123.3	nt	110.8
CCOC(=O)C1CCCN(Cc2cc(=O)oc3cc(C)c(C(C)C)cc23)C1 (stereo not given)	i	1	0.9	21.4	79.5	nt	97.4
Cc1ccccc1Cn1nc(C)c(NC(=O)c2cc3nc(-c4ccco4)cc(C(F)(F)F)n3n2)c1C	i	0.93	10.2	nt	nt	0.0	98.4
CC(C)c1ccc(-c2cc(C(=O)N3N=C(C(F)F)CC3(O)C(F)F)c3ccccc3n2)cc1 (stereo not given)	i	0.99	-7.5	32.4	121.4	-2.1	103.7
O=C(NNc1c(Cl)cccc1Cl)c1cccs1	i	1.1	nt	nt	nt	nt	101.3
O=C(CCCn1c(=S)[nH]c2ccccc2c1=O)NC1CCCC1	i	0.83	1.2	nt	nt	-1.5	99.5
O=C(NCc1cccnc1)C(=O)NCC1OCCN1S(=O)(=O)c1ccc(Cl)cc1 (stereo not given)	i	0.83	-0.9	-52.4	100.8	-1.5	nt
Cc1ccccc1Cn1nc(C)c(NC(=O)c2noc3c2CCCC3)c1C	i	0.83	-5.2	13.3	53.2	-2.3	87.6
Cc1ccc(Cn2c(SCC(=O)NCC3CCCO3)nc3c(sc4ccccc43)c2=O)cc1 (stereo not given)	nt	nt	-0.8	33.3	136.6	-2.2	98.5
CCn1c(SCC(=O)Nc2ccc3c(c2)OCCO3)nc2c(c1=O)SC(C)C2 (stereo not given)	nt	nt	2.0	-18.2	92.0	-1.5	100.1

Source: PubChem BioAssay (several laboratories)
